Screens (PubChem)
rCAG RNA binder – binders of r(CAG) RNA repeats, primary screen, biochemical, fluorescence; r(CAG) RNA repeat, TO-PRO-1 dye displacement fluorescence; inhibition, % at 3 µM; actives 1.3% (n = 370,000); AID 651821, 2012;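 active means inhibition above the plate cutoff, the mean of all test compounds on that plate plus 3 SD, cut at about 35% in these data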;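 further: 0% = DMSO alone and 100% = 100 µM mitoxantrone as full dye displacement; higher means more dye released from RNA so lower well fluorescence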
TDP2 absorb – human TDP2 enzyme inhibitors, primary screen, biochemical, epi absorbance, recombinant enzyme | Tyrosyl-DNA phosphodiesterase 2 (Homo sapiens), O95551 | T5PNP hydrolysis, p-nitrophenol absorbance 415 nm | inhibition, % at 12.8 µM | actives 0.34% (n = 370,000);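 active means inhibition above the mean of all tested compounds plus 3 SD, set per campaign, cut at about 25% in these data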;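 further: 0% = DMSO with enzyme and 100% = buffer with substrate but no TDP2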
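Evaluation: % inhibition relative to enzyme-containing and enzyme-free wells. Material: recombinant human TDP2. Benchmarks: enzyme-free and DMSO wells. Timing: enzyme reaction with compound for 2 h at 37 °C. Compound dosing: 12.8 µM only. Measured by: p-Nitrophenol epi absorbance. Reagent: T5PNP substrate at 5 mM, a TopII-DNA adduct mimic. Replication: single well per compound.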
mABHD4 FP – ABHD4 inhibitors, primary screen, biochemical, fluorescence polarization, mouse | AID 720543, 2013 | inhibition, % at 8.92 µM | (Lyso)-N-acylphosphatidylethanolamine lipase (Mus musculus), Q8VD66 | actives 0.54% (n = 370,000) | purified mABHD4, FP-Rh probe fluorescence polarization;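 active means inhibition exceeding the mean over every tested compound plus 3 SD, cut at about 30% in these data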;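 further: 0% = plate median of compound wells and 100% = S159A mutant with DMSO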
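Assay system: mouse ABHD4 enzyme, wild type / Also added: fluorescent activity-based probe FP-Rh / Doses: single nominal dose of 8.92 µM, 0.89% DMSO final / Timing: 45 min compound pre-incubation plus 60 min probe step, 25 °C / Signal: FP readout, ex 525 nm / em 598 nm / Control set: S159A mutant/DMSO as 100%, compound-well median as 0%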
LEDGF integ inh – blockers of LEDGF/p75-dependent integrase strand transfer – biochemical, TR-FRET, high throughput, primary screen; actives 0.64% (n = 370,000); TR-FRET IN-LEDGF/p75 DNA integration, Eu/Cy5; AID 743269, 2014; HIV-1 integrase (with human LEDGF/p75); inhibition, % at 3.7 µM;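 active means inhibition above the screen-wide mean plus 3 SD, cut at about 13% in these data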;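 further: signal is the Cy5 over europium emission ratio at 671 and 618 nm; 0% = plate median of compound wells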
TCR CD3 inh – inhibitors of human TCR-CD3 interaction, primary screen, biochemical, fluorescence, TAMRA-labeled TCR probe | T-cell receptor (TCR) | inhibition, % at 9.4 µM | actives 0.37% (n = 360,000); in the data active means inhibition above about 19%;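 further: recombinant mutant TCR 2C K166C tagged with TAMRA read by polarization; 0% = receptor in buffer alone and 100% = receptor with positive control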
PRMT1 inh – PRMT1 methyltransferase inhibitors, primary screen, biochemical, fluorescence polarization. inhibition, % at 2.79 µM. AID 652257, 2013. recombinant PRMT1, activity-based probe fluorescence polarization. actives 1.3% (n = 370,000). Protein arginine N-methyltransferase 1 (Homo sapiens), Q99873;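 active means inhibition above about 21% made by adding two undisclosed values, limit read from the data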
Target sequence (Q99873 whole entry, looked up): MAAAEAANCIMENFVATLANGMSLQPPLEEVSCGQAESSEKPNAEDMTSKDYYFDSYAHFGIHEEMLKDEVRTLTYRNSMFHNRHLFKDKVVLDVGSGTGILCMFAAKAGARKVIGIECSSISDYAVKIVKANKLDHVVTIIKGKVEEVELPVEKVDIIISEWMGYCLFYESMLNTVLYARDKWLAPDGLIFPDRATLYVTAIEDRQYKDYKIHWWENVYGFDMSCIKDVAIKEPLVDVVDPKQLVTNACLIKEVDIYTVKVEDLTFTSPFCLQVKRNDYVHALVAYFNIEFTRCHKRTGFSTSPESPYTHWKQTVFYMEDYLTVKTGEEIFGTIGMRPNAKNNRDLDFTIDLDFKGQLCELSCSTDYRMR
NPR2 activator – human GC-B receptor activators, primary screen, HEK293 GC-B cells, cGMP TR-FRET, EC30 CNP. Atrial natriuretic peptide receptor 2 (Homo sapiens), P20594. 0% at EC30 CNP, 100% saturating CNP. activation, % at 10 µM. actives 0.11% (n = 370,000);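 active means activation at 10 µM reaching about 35% in either raw or pattern-adjusted values, limit read from the data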
SIAE primary – human SIAE inhibitors, primary screen, biochemical, fluorescence polarization, FP-Rh probe, 1536-well HTS. Sialate O-acetylesterase (Homo sapiens), Q9HAT2. SIAE FP-Rh probe binding. inhibition, % at 9.66 µM. actives 0.69% (n = 370,000). AID 1053197, 2014;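 active means inhibition above a cutoff: mean of compounds within the control limits plus 3 SD of those, cut at about 17% in these data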;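 further: 0% = plate median of compound wells and 100% = probe without SIAE protein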
Target sequence (Q9HAT2 whole entry, looked up): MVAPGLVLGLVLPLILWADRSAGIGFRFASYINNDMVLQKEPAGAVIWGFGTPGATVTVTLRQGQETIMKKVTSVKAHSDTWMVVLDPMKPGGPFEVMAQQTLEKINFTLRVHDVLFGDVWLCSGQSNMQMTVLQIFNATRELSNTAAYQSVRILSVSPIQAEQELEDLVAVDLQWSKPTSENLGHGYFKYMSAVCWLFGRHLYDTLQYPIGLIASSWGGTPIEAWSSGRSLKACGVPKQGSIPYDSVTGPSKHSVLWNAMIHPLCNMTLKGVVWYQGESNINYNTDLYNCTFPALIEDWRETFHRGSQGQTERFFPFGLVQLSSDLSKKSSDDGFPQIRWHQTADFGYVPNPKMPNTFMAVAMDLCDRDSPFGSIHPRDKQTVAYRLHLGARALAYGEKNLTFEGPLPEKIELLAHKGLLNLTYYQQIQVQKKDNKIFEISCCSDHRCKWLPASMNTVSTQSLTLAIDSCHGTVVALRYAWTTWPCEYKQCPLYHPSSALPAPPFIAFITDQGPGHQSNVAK
MBD2 DNA inh – inhibitors of MBD2 binding to methylated DNA, primary screen, biochemical, TR-FRET, DNA-binding domain, human; inhibition, % at 4.4 µM; Methyl-CpG-binding domain protein 2 (Homo sapiens), Q9UBB5; MBD2 binding to methylated oligonucleotide; actives 0.31% (n = 370,000); in the data active means inhibition above about 13%
* hit, by the source's call. An excerpt. The share of hits here may be higher or lower than overall.

Molecule,rCAG RNA binder,TDP2 absorb,mABHD4 FP,LEDGF integ inh,TCR CD3 inh,PRMT1 inh,NPR2 activator,SIAE primary,MBD2 DNA inh
O=C(CN1c2ccccc2Sc2ccccc21)NNC(=S)Nc1ccc(Cl)cc1,61.7*,-15.0,22.9,0.7,-2.3,-7.2,5.3,17.0,0.9
CC(C)(C)NC(=O)/C(=C/c1cccnc1)NC(=O)c1ccco1,-2.9,-4.4,3.8,-0.4,1.2,0.5,-6.3,1.7,5.2
CCOC(=O)c1c(C)[nH]c(C)c1C(=O)COC(=O)c1cccnc1SC,1.0,-5.5,-3.9,0.5,0.7,-3.3,2.6,-4.4,-2.5
Cc1ncc(CO)c(/C=N/NC(=O)c2ccccc2Br)c1O,-1.4,-5.3,2.7,-7.7,-0.8,-3.2,0.4,3.0,-0.8
COC(=O)c1ccc(NC(=O)CSc2nc(=O)cc(N)n2-c2ccccc2)cc1,4.2,-4.5,-16.8,-1.8,0.9,7.0,3.1,-7.2,4.6
CCOC(=O)c1c(C)[nH]c(C(C)=NNC(=O)c2cccs2)c1C,6.4,0.2,4.3,-0.8,6.2,-1.4,5.6,2.9,-3.9
COc1ccc(OC)c(NC(=O)CSc2nnc(N)s2)c1,-0.4,3.0,6.9,0.6,1.6,-5.1,1.2,0.0,-5.8
Cc1onc(-c2c(F)cccc2Cl)c1C(=O)OCn1nnc2ccccc2c1=O,-6.5,9.9,6.7,1.1,-0.4,-0.7,-1.9,0.9,-1.1
Cc1ccc(-c2nnn(CC(=O)NC3CC4CCC3C4)n2)cc1 (stereo unspecified),-6.6,-1.5,-3.3,1.5,5.6,-0.4,1.6,4.3,1.3
CC1(C)CC(/C=C/c2ccccc2)=Nc2ccccc2N1,1.1,-6.1,-8.9,3.6,-12.1,5.3,-12.4,0.6,7.3
Cc1ccc(/C=C2/Sc3ccc(C(=O)N4CCN(c5ccccn5)CC4)cc3NC2=O)cc1,3.7,17.9,0.1,2.1,0.9,-4.9,1.2,-8.7,0.3
COC(=O)[C@H](C(C)C)N(Cc1ccccc1)S(=O)(=O)CCN1CCCC1,-0.6,-10.9,0.0,5.5,-11.0,-1.3,1.9,0.4,5.3
COc1ccc(-c2nc(N)n(C(=O)c3cccs3)n2)cc1,4.6,-12.1,-8.2,2.0,-3.8,-3.4,-3.6,2.6,2.2
CC(=O)N/C(=C\c1ccccc1)C(=O)OC(C)C(=O)N(C)c1ccccc1 (stereo unspecified),-4.3,-2.3,-2.0,1.9,4.0,-2.3,-1.8,12.0,-10.6
C/C(=N\NC(=O)c1ccc(NS(=O)(=O)c2cccs2)cc1)c1ccc(C(C)(C)C)cc1,17.3,-11.6,-9.5,5.9,-1.5,-4.9,-4.5,-6.9,-1.2

Results in rCAG RNA binder and TCR CD3 inh, for some of the entries so far:
compound	rCAG RNA binder	TCR CD3 inh
Cc1ccc(/C=C2/Sc3ccc(C(=O)N4CCN(c5ccccn5)CC4)cc3NC2=O)cc1	3.7	0.9
COC(=O)[C@H](C(C)C)N(Cc1ccccc1)S(=O)(=O)CCN1CCCC1	-0.6	-11.0

(further entries)
Molecule,rCAG RNA binder,TDP2 absorb,mABHD4 FP,LEDGF integ inh,TCR CD3 inh,PRMT1 inh,NPR2 activator,SIAE primary,MBD2 DNA inh
O=C(COC(=O)COc1ccccc1)Nc1ncc([N+](=O)[O-])s1,33.9,-4.7,22.6,31.8*,-11.1,40.5*,-3.3,-5.2,2.4
COc1cccc(/C=C/C(=O)OCC(=O)NC2CCCC2)c1,0.9,-5.5,-9.1,-4.3,-3.9,2.2,5.1,-0.9,1.5
COc1ccc(Nc2n[nH]c(N)c2C(N)=O)cc1,-2.5,0.9,-2.6,-0.7,-1.4,0.4,-5.7,5.3,-10.5
Cc1ccc(S(=O)(=O)n2nc(OC(=O)c3cccs3)cc2N)cc1,6.8,-2.3,-1.6,-7.8,6.2,8.1,2.4,3.6,4.1
CC(=O)O[C@H]1c2ccccc2-c2ccccc2[C@@H]1OC(C)=O,-6.7,15.4,1.0,-1.6,-5.2,0.8,1.2,-2.8,3.5
Cc1ccc(CC(=O)Nc2ncc([N+](=O)[O-])s2)cc1,7.7,-7.0,1.4,-4.2,4.7,-2.4,3.5,-4.9,-1.8
C/C(=C\C(=O)c1ccc(Cl)cc1)Nc1ccc(Br)cc1,0.4,5.8,1.0,1.5,5.9,-0.3,2.9,0.3,-2.2
CC(=O)N1CCc2cc(C(=O)CN3CCC(C)CC3)ccc21,12.5,-7.5,-6.6,-0.4,7.6,-1.9,4.2,3.1,-1.3
COc1ccc(CCNC(=O)CSc2nc3[nH]ncc3c(=O)n2-c2ccc(C)c(Cl)c2)cc1OC,-1.7,-3.3,0.2,-2.5,-0.7,-1.2,0.8,6.1,0.3
Cc1onc(-c2ccccc2)c1C(=O)NC(=S)Nc1sc2c(c1C#N)CCCC2,18.8,-3.6,2.7,-1.2,-3.3,9.4,-2.9,2.9,1.3
CCOC(=O)CCSc1nc(N2CCOCC2)c2c(c1C#N)CC(C)(C)OC2,-0.7,-1.8,0.6,5.1,6.4,-0.9,14.6,-0.1,-5.7
CCOC(=O)c1c(C)[nH]c(C)c1C(=O)COC(=O)c1ccc(OC)cc1,-2.3,1.9,-5.2,5.8,4.8,-5.9,-7.9,-2.6,-5.7
COC(=O)c1ccc(Oc2cc(C)nc(-n3nc(C)cc3C)n2)cc1,-2.4,-1.1,-4.1,-1.1,3.9,-0.7,0.3,0.9,2.5
CC1=C(C(=O)Nc2cc(C)ccn2)C(c2ccc(C)cc2)C2=C(CCCC2=O)N1 (stereo unspecified),-2.9,3.7,-4.0,1.7,-10.0,0.9,-7.1,4.4,7.2
C=CCN(CC=C)c1ncnc2[nH]ncc12,0.7,-1.4,1.3,-0.7,-3.6,0.0,6.5,2.7,-1.3
COc1ccc(S(=O)(=O)N(CCCN2CCOCC2)Cc2cccc(OC)c2OC)cc1,-2.5,1.0,-4.2,4.3,-0.4,-2.9,-5.3,10.3,0.8
CSc1ccc(C(=O)NCC(=O)O)cc1[N+](=O)[O-],5.5,-15.6,0.0,1.6,-5.9,-1.7,-0.4,2.6,1.0
CCOC(=O)c1c(C)[nH]c(C)c1C(=O)COC(=O)CCOc1ccccc1OC,-1.9,-17.6,-2.1,-1.2,3.5,2.4,5.1,3.4,-1.8
O=C(NCCNC(=O)c1ccc(Cl)cc1Cl)c1ccco1,2.0,-0.5,7.1,1.9,1.5,-1.0,6.4,-3.9,0.7
CCN(CC)CCCN1CC(=O)N2[C@@H](Cc3c([nH]c4ccccc34)C2(C)C)C1=O,-3.6,-5.3,0.5,-1.3,-8.5,-0.4,2.5,6.1,-2.8
C[C@H](NC(=O)c1nc[nH]c1C(=O)N[C@H](C)c1ccccc1)C(=O)OC(C)(C)C,-8.0,-13.0,-8.9,0.5,3.4,-0.8,5.8,0.7,0.8
Cc1nn(Cc2ccccc2Cl)c(C)c1C(=O)NC1=NCCS1,-1.9,-4.2,-3.1,-2.0,-3.6,2.1,-1.9,-2.3,-2.1
CCC(=O)N1C(C(=O)N2CCCC2)CSC1c1ccc(OC)cc1 (stereo unspecified),-1.2,-4.5,1.6,-2.0,7.4,-3.3,-3.1,7.8,-1.1
CCOC(=O)c1c(C)[nH]c(C)c1C(=O)COC(=O)c1cc2ccccc2cc1O,7.2,0.6,-29.7,2.0,6.7,-5.1,-3.1,-19.2,3.0
Cc1ccccc1N1C(=O)CC(N(O)c2ccccc2)C1=O (stereo unspecified),6.6,-2.8,-2.1,5.5,7.9,0.7,-2.4,-3.8,-0.4
O=C(NC1CC(=O)N(c2ccccc2)C1)N1CCN(C(=O)c2ccco2)CC1 (stereo unspecified),-8.9,0.3,0.8,-1.6,-1.6,-1.8,4.1,5.8,-4.0
CC(=O)Nc1ccc(NC(=O)CSc2n[nH]c(-c3cccs3)n2)cc1,12.1,-14.6,-8.6,0.5,-5.1,7.8,5.6,4.0,0.7
CC(=O)CSc1nnc(C(F)(F)F)n1C,0.1,9.8,-1.2,1.3,-0.4,-2.6,4.0,3.3,2.4
Cc1ccc(Sc2ccc(C(=O)NC(C)C)cc2[N+](=O)[O-])cc1,-2.6,-2.8,-3.6,-0.6,-5.3,3.1,1.2,-1.2,3.0
O=C(CC1C(=O)NCCN1Cc1c(F)cccc1Cl)NCCC1=CCCCC1 (stereo unspecified),-2.1,-14.0,0.0,4.4,-0.4,-4.5,-2.0,2.5,-6.4
CC1CCN(C(=S)NC(=O)c2ccco2)CC1,-0.1,-0.5,-3.0,6.5,2.3,-3.6,1.4,1.2,-4.4
C=CCn1c(CCNC(=O)c2cccs2)nnc1SCC(=O)c1ccc(Br)cc1,-2.7,-10.2,-5.5,3.7,0.7,2.0,0.2,-3.0,2.2
Cc1cc(C)c(NC(=O)C2CCCN2C)c(C)c1 (stereo unspecified),-2.0,1.6,5.6,0.7,1.5,-2.4,7.9,-4.0,1.4
